AF4-AF9 inh: inhibitors of AF4 peptide binding to AF9, primary screen, biochemical, AlphaScreen, biotin-AF4 peptide, FLAG-AF9, single point. Protein AF-9 (Homo sapiens), P42568. inhibition, % at 10 µM. 350,000 tested, 0.47% active. AID 651704, 2012;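 active = every replicate reaching a set inhibition limit, whatever the replicate mean, cut at about 25% in these data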;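 also: 0% = plate neutral control median and 100% = total signal loss; the record names both 10 and 1 µM as test concentration; the first replicate is given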
Target sequence (P42568 whole entry, looked up): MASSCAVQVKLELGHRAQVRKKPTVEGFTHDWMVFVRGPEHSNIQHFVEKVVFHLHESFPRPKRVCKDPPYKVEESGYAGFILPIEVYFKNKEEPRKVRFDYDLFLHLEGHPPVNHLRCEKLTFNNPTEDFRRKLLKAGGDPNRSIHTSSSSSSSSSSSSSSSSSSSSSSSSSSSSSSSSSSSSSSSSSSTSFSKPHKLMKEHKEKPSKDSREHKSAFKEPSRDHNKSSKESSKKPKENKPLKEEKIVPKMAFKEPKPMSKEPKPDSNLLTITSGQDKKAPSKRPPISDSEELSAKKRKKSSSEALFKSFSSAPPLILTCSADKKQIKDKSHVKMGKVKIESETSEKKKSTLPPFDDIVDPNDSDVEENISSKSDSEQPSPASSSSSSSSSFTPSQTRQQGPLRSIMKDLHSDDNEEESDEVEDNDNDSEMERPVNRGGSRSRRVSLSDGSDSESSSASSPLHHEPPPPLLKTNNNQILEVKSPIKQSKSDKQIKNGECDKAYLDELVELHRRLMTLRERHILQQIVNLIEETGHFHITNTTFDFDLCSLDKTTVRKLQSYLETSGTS
rRNA inh HTS: reduced GFP signal of wild-type E. coli, primary screen, bacterial rRNA inhibitor project, GFP/RFP fluorescence, OD600, single point; E. coli WT GFP vs humanized-ribosome RFP mutants, 24 h; active compounds read low; DMSO median 0, no signal -100; AID 720706, 2013; 350,000 tested, 1.6% active; GFP signal change (wild-type ribosome), % (no concentration beside the values);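 active = significant combined selectivity score with lowered wild-type GFP, culture density cut under 30%, mutant RFP and density less affected; inactive = any of these conditions unmet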; also: one replicate is shown; some compounds called inactive have numbers as strong as hits
rRNA inh HTS OD600: recorded beside rRNA inh HTS, whose call it bears; OD600 change, %; measured here: OD600 growth;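 optical density of the mix in the first replicate; 0 = DMSO median and -100 = no signal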
rRNA inh HTS RFP: recorded beside rRNA inh HTS, whose call it bears; RFP signal change, %; measured here: RFP humanized mutant strains;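 first replicate; 0 = DMSO median and -100 = no signal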
* marks the source's active call; other numbers are inactive results; & = joins results of further samples; ! = not active in a repeat. Some of the compounds tested; rates above refer to the full screens.

Value order – rRNA inh HTS RFP, AF4-AF9 inh, rRNA inh HTS, rRNA inh HTS OD600
> CN1C(=O)c2cc(NC(=O)C3CCCC3)ccc2OC[C@@H]2O[C@H](CC(=O)NCc3ccccc3F)CC[C@H]21
  -0.7, -2.6, 0.3, -1.8
> CCCC#Cc1ccc([C@@H]2[C@@H](CO)N3C(=O)CN(C(=O)NCCC)C[C@H]23)cc1
  2.3, 0.9, -8.4, -10.9
> CO[C@@H]1CN(C)C(=O)c2cc(NC(=O)C3CC3)ccc2OC[C@H](C)N(C(=O)Cc2ccccn2)C[C@@H]1C
  -3.3, -8.3, -0.1, 0.4
> C/C=C/c1ccc([C@H]2[C@H](CO)N3C(=O)CN(Cc4ccc(C(=O)OC)cc4)C[C@@H]23)cc1
  1.2, 4.6, 2.8, 9.2
> CC(C)(C)[S@](=O)N1Cc2cc(C(=O)N3CCOCC3)nc(-c3cccc(Br)c3)c2[C@@H]1CCO
  5.3, 6.4, -1.0, -5.5
> COCC(=O)N1CC(=O)N2[C@H](CO)[C@@H](c3ccc(C#Cc4cccc(OC)c4)cc3)[C@H]2C1
  -5.2, 1.7, 2.1, -7.7
> O=C(C1CCC1)N1CC2(C1)[C@H](c1ccccc1)[C@H](CO)N2C(=O)c1cccnc1
  -1.2, -3.9, 2.8, 2.8
> O=C(C[C@H]1C=C[C@@H](NC(=O)c2ccncc2)[C@@H](CO)O1)Nc1ccccc1
  0.1, -5.5, 1.7, 3.6
> COC(=O)[C@@H]1[C@@H](CO)[C@@H]2Cn3c(ccc(-c4cccc(F)c4)c3=O)[C@@H]2N1Cc1ccncc1
  3.3, -1.1, -1.7, -2.7
> COc1ccc(-c2ccc(C3[C@H]4CNC[C@@H]3N4CC3CCOCC3)cc2)cc1 (some centres undefined)
  -0.5, 8.2, 5.4, 4.7
> CN(C)CCCNC(=O)[C@H]1[C@H](CO)[C@H]2Cn3c(ccc(-c4cccc(F)c4)c3=O)[C@@H]1N2
  -3.8, -1.1, 1.7, -0.9
> Cc1ccccc1S(=O)(=O)N1CC[C@H]2[C@H](CO)Nc3ccc(-c4cccc(F)c4)cc3[C@H]21
  26.1, -2.5, -3.6, -3.9
> CCC(=O)N1CCC2(CC1)CN(Cc1cccc(OC)c1)[C@@H](CO)c1[nH]c3cc(OC)ccc3c12
  -1.2, 1.6, 4.1, 10.7
> O=C(C[C@@H]1C[C@H]2c3cc(NC(=O)Nc4ccccc4)ccc3O[C@H]2[C@H](CO)O1)NCC(F)(F)F
  2.1, -1.2, -6.9, -4.7
> C[C@@H]1CN([C@@H](C)CO)C(=O)c2cc(NC(=O)c3ccncc3)ccc2O[C@@H]1CN(C)Cc1ccc(C(F)(F)F)cc1
  1.8, -5.5, -3.5, -7.2
> O=C(C1CCCC1)N1CC(=O)N2[C@H](CO)[C@@H](c3ccc(-c4ccccc4F)cc3)[C@H]2C1
  -3.8, 4.0, 3.8, -13.1
> CO[C@@H]1CN(C)C(=O)c2cc(NC(=O)c3ccc(F)cc3)ccc2OC[C@H](C)N(C(=O)CN(C)C)C[C@@H]1C
  -2.5, 3.5, 1.5, 2.6
> C[C@H]1CN([C@@H](C)CO)C(=O)Cc2cc(N(C)C)ccc2O[C@@H]1CN(C)S(=O)(=O)c1cccs1
  1.7, 7.0, -2.1, -0.5
> COc1cccc(S(=O)(=O)N2CCCCN3[C@H](CO)[C@@H](c4ccc(C#CCC(C)C)cc4)[C@H]3C2)c1
  0.0, -3.7, -15.5, -30.2
> CN1C(=O)c2cc(NC(=O)c3cccs3)ccc2OC[C@H]2O[C@@H](CC(=O)NCC(F)(F)F)CC[C@H]21
  2.2, -0.6, -0.3, 4.1
> CC=Cc1ccc2n(c1=O)C[C@H]1[C@H](CO)[C@@H](C(=O)NCc3ccncn3)N(C(=O)C3CCCC3)[C@@H]21 (mixture of isomers)
  -2.6, -5.9, 1.2, 8.1
> C[C@@H]1CN([C@@H](C)CO)C(=O)c2c(c3ccccc3n2C)-c2ccccc2CO[C@H]1CN(C)Cc1ccc(Cl)c(Cl)c1
  -1.3, -2.2, 6.6, 5.8
> O=C(c1ccccn1)N1CC(=O)N2[C@H](CO)[C@@H](c3ccc(-c4cccc(F)c4)cc3)[C@H]2C1
  -3.5, -5.0, -1.9, 0.4
> Cc1noc(C)c1NC(=O)Nc1ccc2c(c1)C(=O)N([C@@H](C)CO)C[C@@H](C)[C@@H](CN(C)Cc1ccccc1)OCCCC[C@@H](C)O2
  -2.4, -1.4, 1.9, -0.1
> COc1ccc2c3c([nH]c2c1)[C@@H](CO)N(CC1CC1)CC31CCN(C(=O)Nc2cccc(F)c2)CC1
  -1.2, -5.5, -2.4, 2.3
> CC(=O)NC[C@H]1[C@@H](c2ccc(C#CC(C)(C)O)cc2)[C@@H](CO)N1C(=O)CC1CC1
  -2.7, -4.2, 2.0, 12.1
> CN(C)CC(=O)Nc1ccc2c(c1)[C@@H]1C[C@@H](CC(=O)N3CCN(C)CC3)O[C@H](CO)[C@@H]1O2
  -1.8, -1.1, 2.0, 4.6
> COc1cccc(C#Cc2ccc3c(c2)[C@@H]2[C@@H](CCN2C(=O)c2ccccc2F)[C@H](CO)N3)c1
  2.6, 4.6, 1.2, 19.3
> O=C(Nc1cc(F)ccc1F)N1CC(=O)N2[C@@H](CO)[C@H](c3ccc(-c4cccnc4)cc3)[C@@H]2C1
  4.1, -1.7, -1.0, 2.7
> Cc1ccc(S(=O)(=O)Nc2ccc3c(c2)C(=O)N([C@H](C)CO)C[C@@H](C)[C@H](CN(C)C(=O)c2ccccc2)OCCCC[C@@H](C)O3)cc1
  5.6*, 1.7, -15.9*, -4.2*
> C[C@H]1CN([C@@H](C)CO)C(=O)Cc2cc(N(C)C)ccc2O[C@H]1CN(C)C(=O)Nc1ccccc1
  2.5, -3.1, 1.4, 6.3
> COc1ccc(NC(=O)Nc2ccc3c(c2)CC(=O)N([C@@H](C)CO)C[C@@H](C)[C@@H](CN(C)CC2CCCCC2)O3)cc1
  -3.4, 13.9, 0.6, 7.5
> O=C(C1CCCC1)N1C[C@@H]2N[C@H](C1)C2c1ccc(-c2cncnc2)cc1 (some centres undefined)
  -4.0&1.1, -0.6&0.8, 8.1&9.3, 13.4&30.8
> CN(C)C(=O)C[C@@H]1C=C[C@H](NS(=O)(=O)c2ccccc2)[C@@H](CO)O1
  -0.6, -2.3, 0.2, 3.0
> CC=Cc1ccc2n(c1=O)C[C@H]1[C@H](CO)[C@@H](C(=O)N(C)C)N(CC3CCCC3)[C@@H]21 (mixture of isomers)
  -0.5, -2.9, 5.8, 14.0
> O=C(C1CCCC1)N1CC(=O)N2[C@H](C1)[C@@H](c1ccc(Br)cc1)[C@@H]2CO
  -4.9, -3.7, -2.5, 7.5
> COc1cc(CN2[C@@H]3CNC[C@H]2C3c2ccc(-c3ccccc3C)cc2)cc(OC)c1 (some centres undefined)
  5.1&-11.9, 3.1&6.7, -7.6&-54.5, -22.4&-79.5
> C[C@@H]1CN([C@H](C)CO)C(=O)c2cc(NC(=O)CCCN(C)C)ccc2O[C@@H](C)CCCCO[C@@H]1CN(C)Cc1ccccc1
  -3.3, -1.5, 0.2, 5.2
> C/C=C/c1ccc([C@H]2[C@@H](CO)N(C(=O)CC)[C@H]2CN(C)Cc2cncnc2)cc1
  -1.8, -2.5, -2.4, 4.5
> COCC(=O)N1CC(=O)N2[C@@H](CO)[C@H](c3ccc(-c4cccnc4)cc3)[C@@H]2C1
  -3.7, 7.0, -0.5, 7.1
> C[C@@H]1CCCCO[C@@H](CN(C)Cc2ccccc2)[C@H](C)CN([C@H](C)CO)C(=O)c2cc(NS(=O)(=O)c3ccc(Cl)cc3)ccc2O1
  32.6, 9.4, -4.2, -53.6
> COc1ccc2c3c([nH]c2c1)[C@H](CO)N(C(=O)Nc1ccc(F)cc1)CC31CN(Cc2cc(-c3ccccc3)on2)C1
  -1.5, -3.6, -3.3, 12.4
> C[C@@H](NC(=O)C[C@H]1C[C@H]2c3cc(NC(=O)C4CCC4)ccc3O[C@H]2[C@@H](CO)O1)c1ccccc1
  -1.8, -0.9, 0.9, -1.3
> O=C(OCc1cn([C@@H]2C[C@H](c3ccc(Cl)cc3)N(C(=O)C3CCCCC3)C[C@H]2O)nn1)c1ccccc1
  3.5, -0.1, 0.4, -9.1
> CCCC(=O)Nc1ccc2c(c1)C(=O)N(C)[C@@H]1CC[C@H](CC(=O)NCc3cccc(F)c3)O[C@@H]1CO2
  -1.1, 0.7, 0.7, 5.8
> COCC#Cc1ccc([C@@H]2[C@H](CO)N3C(=O)CN(C(=O)Nc4ccccc4F)C[C@@H]23)cc1
  -1.3, -4.4, 3.8, -7.0
> CC(C)CC#Cc1ccc([C@@H]2[C@H]3CN(S(=O)(=O)c4cccc(F)c4)CC(=O)N3[C@H]2CO)cc1
  0.3, 0.4, 3.7, -3.8
> C(=C\c1ccc(C2[C@H]3CNC[C@@H]2N3Cc2nccs2)cc1)/c1ccccc1 (some centres undefined)
  0.0*!, 7.9&1.1, -21.1*!, 4.4*!
> O=C(C[C@H]1C=C[C@H](NC(=O)c2cccnc2)[C@@H](CO)O1)NCc1ccncn1
  -1.7, -1.2, 5.0, 7.5
> CCc1cc(-c2nnn(CCC3COCCO3)c2CC)ccc1-c1cn(CCc2c[nH]c3ccccc23)nn1 (centres undefined)
  -2.8, 2.0, -5.1, -9.1

New compounds follow:
Value order – rRNA inh HTS RFP, AF4-AF9 inh, rRNA inh HTS, rRNA inh HTS OD600
> Cc1cccc(-c2ccc([C@@H]3[C@H]4CN(C(=O)CN5CCOCC5)CC(=O)N4[C@H]3CO)cc2)c1
  0.3, 1.1, -1.0, 11.1
> COc1cccc(-c2ccc([C@@H]3[C@@H](CO)N4C(=O)CN(C(=O)C5CCCCC5)C[C@H]34)cc2)c1
  7.1, 2.8, 5.2, -14.8
> O=C(Cc1ccc(NC(=O)C2CCCN(C(=O)C3CCCCC3)C2)cc1)Nc1cccc(C(=O)N2CCCC2)c1 (centres undefined)
  2.3, -1.4, -5.7, 7.4
> COCC#Cc1ccc([C@@H]2[C@@H](CO)N3C(=O)CN(C(=O)c4cccnc4)C[C@@H]23)cc1
  0.6, -2.7, -0.6, 15.6
> CO[C@@H]1CC[C@@H]2CCN(C)C(=O)[C@H](C)N(C)C(=O)c3cc(C#N)ccc3OC[C@H]1O2
  -0.7, -2.6, -0.2, -3.1
> Cc1ccc(S(=O)(=O)Nc2ccc3c(c2)C(=O)N([C@H](C)CO)C[C@@H](C)[C@H](CN(C)C(=O)Nc2cccc4ccccc24)O3)cc1
  4.7, 2.1, 1.0, -8.0
> CCCNC(=O)N1CC2(C1)CN(S(C)(=O)=O)[C@H](CO)c1c2c2ccc(OC)cc2n1C
  -2.5, -3.5, 5.8, 13.2
> O=C(Cc1ccccn1)N1CC(=O)N2[C@H](CO)[C@@H](c3ccc(-c4ccccc4)cc3)[C@H]2C1
  4.9, 0.6, -0.2, -6.3
> O=C(Nc1ccccc1F)N1CC(=O)N2[C@H](CO)[C@@H](c3ccc(C#CC4CCCC4)cc3)[C@H]2C1
  18.6, 5.4, -4.0, -53.3
> CC(C)NC(=O)N1C[C@H]2[C@@H](c3ccccc31)[C@H](CO)N2C(=O)c1ccccc1
  2.9, -0.3, -0.8, 4.9
> N#Cc1ncn(C2OC(CO)C(O)C2O)c1N (centres undefined)
  1.5, 2.7, 14.0, 12.9
> COCC#Cc1ccc([C@@H]2[C@H]3CN(C(=O)C4CCCC4)CC(=O)N3[C@H]2CO)cc1
  -3.2, -5.4, -1.0, 23.4
> COc1ccc2c3c([nH]c2c1)[C@@H](CO)N(C)CC31CCN(C(=O)c2cccnc2)CC1
  -4.4, 4.1, 4.8, 8.8
> Cc1ccccc1S(=O)(=O)N1CC(=O)N2[C@H](CO)[C@H](c3ccc(C#CCC(C)C)cc3)[C@H]2C1
  -7.0, -1.9, 1.9, 5.4
> CCCC#Cc1ccc2c(c1)[C@@H]1[C@@H](CCN1S(=O)(=O)c1ccccc1F)[C@@H](CO)N2
  0.2, -0.1, -3.2, -1.7
> Cc1ccccc1S(=O)(=O)N1[C@H](C#N)[C@H](c2ccc(C#CC3CCCC3)cc2)[C@@H]1CO
  0.6, 0.5, 1.2, -13.6
> C[C@H]1CN([C@@H](C)CO)C(=O)c2ccccc2-c2ccccc2CO[C@H]1CN(C)Cc1cccc(C(F)(F)F)c1
  7.8, -2.5, -7.2, -22.2
> COC(=O)C[C@@H]1CC[C@@H]2[C@H](COc3ccc(NC(=O)Nc4ccccc4C)cc3C(=O)N2C)O1
  3.2, -0.1, 5.1, 5.9
> CCCNC(=O)C[C@H]1CC[C@H]2[C@@H](COc3ccc(NC(=O)C4CCOCC4)cc3C(=O)N2C)O1
  -0.4, -2.3, 6.3, 9.8

Exported with the structure last: entries from further up
| rRNA inh HTS RFP | AF4-AF9 inh | rRNA inh HTS | rRNA inh HTS OD600 | smiles |
| --- | --- | --- | --- | --- |
| -3.2 | -5.4 | -1.0 | 23.4 | COCC#Cc1ccc([C@@H]2[C@H]3CN(C(=O)C4CCCC4)CC(=O)N3[C@H]2CO)cc1 |
| -4.4 | 4.1 | 4.8 | 8.8 | COc1ccc2c3c([nH]c2c1)[C@@H](CO)N(C)CC31CCN(C(=O)c2cccnc2)CC1 |

From PubChem
